Source: PubChem BioAssay (SRMLSC)
H5N1 CPE – MDCK cell protection from H5N1 avian flu. cytopathic effect, luminescence, 72 h; stronger effect = higher value; no value below 0 was filed and about half of the inactive calls have no number; reference of the scale not given here. inhibition, % at 50 µM. hit rate 0.07% among 96,000. AID 740, 2007; in the data active means inhibition above about 25%
* marks the source's active call; other numbers are inactive results.

C=CCc1c(C)nc(SC)nc1Nc1ccc(C)cc1 was read as H5N1 CPE 0.4.
`COC(=O)c1cc(Br)c(=O)n(-c2ccccn2)c1` gave H5N1 CPE inactive.
CCNC(=O)CSc1nnc(C2CC2)n1-c1ccccc1 was read as H5N1 CPE 0.2.
`CCOc1ccccc1C(=O)N(CCC(=O)OC)c1ccccn1` gave H5N1 CPE 0.8.
For C=CCNC(=O)C1CCCN(S(C)(=O)=O)C1 (configuration not stated) the results were H5N1 CPE 0.1.
CS(=O)(=O)N(CC(=O)N/N=C/c1cc([N+](=O)[O-])ccc1Cl)c1ccccc1 was read as H5N1 CPE inactive.
`CN(C)C(=O)C(=O)c1c(-c2ccccc2)cc2ccccn12` gave H5N1 CPE 2.1.
COCCNC(=O)CN(Cc1ccc(Cl)cc1)S(C)(=O)=O was read as H5N1 CPE 0.9.
CCc1ccc(NS(=O)(=O)c2ccc3[nH]cc(C(=O)N(C)Cc4ccco4)c(=O)c3c2)cc1 was read as H5N1 CPE inactive.
CCS(=O)(=O)N1CCN(C2Cc3ccccc3C2)CC1 was read as H5N1 CPE inactive.
Screening CCCCCNCc1cccc(Br)c1 returned H5N1 CPE inactive.
O=S(=O)(c1cccc(S(=O)(=O)N2CCC(n3nnc4ccccc43)CC2)c1)N1CCCCC1 was read as H5N1 CPE 0.1.
COc1ccccc1C(=O)Nc1ccc2c(c1)nc(CCNC(C)=O)n2C was read as H5N1 CPE inactive.
CCNS(=O)(=O)c1ccc(NC(=O)c2cccnc2)cc1 was read as H5N1 CPE 1.1.
`COc1ccc(OC)c(S(=O)(=O)N2CCN(c3c(C)cccc3C)CC2)c1` gave H5N1 CPE 0.5.
`CCc1ccc(/C=c2\s/c(=C\C(=O)C(C)(C)C)[nH]c2=O)cc1` gave H5N1 CPE inactive.
`COC(=O)c1cccc(COC(=O)c2cccnc2SC)c1` gave H5N1 CPE 0.3.
CC(=O)OC1c2ccccc2C(=O)N1Cc1ccccc1Cl (configuration not stated) was read as H5N1 CPE 2.0.
`CCOCC(=O)Nc1cccc(Br)c1` gave H5N1 CPE 0.2.
For COCCCNC(=O)c1cc(C)nc2ccc(F)cc12 the results were H5N1 CPE 2.1.
CN1C(=O)CC(N2CCN(CCN=CC3=C(O)CC(C)(C)CC3=O)CC2)C1=O (configuration not stated) was read as H5N1 CPE inactive.
`Cn1cc(Br)c(C(=O)Nc2sc3c(c2C(N)=O)CCC3)n1` gave H5N1 CPE 0.4.
Cc1cccc(N2CCN(C(=O)c3ccc(CS(=O)(=O)c4ccccc4C)o3)CC2C)c1 (configuration not stated) was read as H5N1 CPE inactive.
`CC1(C)CC(=O)C(C=Nc2ccccc2Sc2ccccc2)=C(O)C1` gave H5N1 CPE 0.2.
Screening O=C(Nc1ccc2c(c1)OCO2)N1CCN(c2ccccc2Cl)CC1 returned H5N1 CPE inactive.
For Cc1cccc(OCC2=NS(=O)(=O)c3ccccc3N2)c1 the results were H5N1 CPE inactive.
`CC(C)c1nnc(NC(=O)CC(=O)Nc2ccccc2C(=O)O)s1` gave H5N1 CPE 0.2.
`CCOC(=O)c1c(C)[nH]c(C(=O)NNC(=O)c2ccccc2)c1C` gave H5N1 CPE inactive.
Screening Cc1cc(NC(=O)CCC(=O)N(c2ccc(F)cc2)C(C(=O)NC2CCCC2)c2ccncc2)no1 (configuration not stated) returned H5N1 CPE inactive.
`O=c1c2ccccc2nc2n1CCCCN2` gave H5N1 CPE 1.5.
Cn1cccc1Cc1nnc(SCC(=O)NC2CCCCC2)n1-c1ccc(F)cc1 was read as H5N1 CPE 0.6.
Screening CC1CCCN(C(=O)CN2C(=O)c3ccccc3C2=O)C1 (configuration not stated) returned H5N1 CPE 0.2.
CCC(=O)N1CCc2cc(S(=O)(=O)NCCCN3CCN(Cc4ccccc4)CC3)ccc21 was read as H5N1 CPE 0.1.
Screening COCCNC(=O)c1cc2ncc(Br)cn2n1 returned H5N1 CPE 2.2.
Screening N#CC1=C(SCc2ccccc2)NC(=O)CC1c1ccc(O)cc1 (configuration not stated) returned H5N1 CPE 1.6.
Screening CCCOCC1CC2(SC(=Nc3ccc(C)cc3)NC2=O)C(=O)O1 (configuration not stated) returned H5N1 CPE 0.3.
`COc1ccc(S(=O)(=O)Cc2ccc(C(=O)NCc3ccc(F)cc3)o2)cc1` gave H5N1 CPE 0.4.
For O=C(/C=C/c1ccccc1F)c1ccoc1 the results were H5N1 CPE inactive.
O=S(=O)(NCc1cc(-c2ccccc2Cl)no1)c1ccc(Cl)cc1 was read as H5N1 CPE inactive.
For CC(C)(C)C1CCc2nc(NC(=O)Cc3cn4ccsc4n3)sc2C1 (configuration not stated) the results were H5N1 CPE inactive.

Arranged by molar mass (low to high): some entries from above
Screening CC1CCCN(C(=O)CN2C(=O)c3ccccc3C2=O)C1 (configuration not stated) returned H5N1 CPE 0.2.
`CC(C)c1nnc(NC(=O)CC(=O)Nc2ccccc2C(=O)O)s1` gave H5N1 CPE 0.2.
For CC(C)(C)C1CCc2nc(NC(=O)Cc3cn4ccsc4n3)sc2C1 (configuration not stated) the results were H5N1 CPE inactive.

Remaining list, next part.
For COc1ccc(NC(=O)C(c2ccc(OC)cc2)N(C)C(=O)c2cnccn2)cc1 (configuration not stated) the results were H5N1 CPE 0.2.
For COC(=O)c1[nH]c2ccc(Br)cc2c1NC(=O)CN1CCCc2ccccc21 the results were H5N1 CPE 0.6.
Screening CN(C)S(=O)(=O)c1ccc2c(c1)c(=O)c(C(=O)N1CCN(c3ccccn3)CC1)cn2C returned H5N1 CPE 0.3.
`CNC(=S)NC1CC2CCC(C1)N2Cc1ccccc1` (configuration not stated) gave H5N1 CPE 1.1.
For Cc1nc(NC(=O)CCC(=O)O)sc1C(=O)N(C)C the results were H5N1 CPE inactive.
`CCOC(=O)c1c(NC(=O)CSc2nnnn2-c2ccccc2)sc2c1CCC(C)C2` (configuration not stated) gave H5N1 CPE inactive.
`COCCn1c(CN2CCN(c3cccc(Cl)c3)CC2)nc2c1c(=O)n(C)c(=O)n2C` gave H5N1 CPE 0.2.
Screening COC(=O)c1ccccc1NC(=O)CSCC(=O)Nc1ccccc1 returned H5N1 CPE 0.2.
For Nc1nnc(SCC(=O)N2CCN(c3ccccc3)CC2)s1 the results were H5N1 CPE inactive.
For O=C(c1cccs1)N(CCO)Cc1cc2cc3c(cc2[nH]c1=O)OCCO3 the results were H5N1 CPE 0.7.
For Cc1ccc(-c2ccc(CCC(=O)O)o2)cc1 the results were H5N1 CPE 0.5.
`Cc1ccc2cc3c(NC(=O)c4cccnc4)nn(C)c3nc2c1` gave H5N1 CPE inactive.
Screening O=C(O)CCCCC1SCC2NC(=O)NC21 (configuration not stated) returned H5N1 CPE 2.0.
For CCCc1cc(=O)[nH]c(SCC(=O)c2ccc(S(=O)(=O)N3CCCC3)cc2)n1 the results were H5N1 CPE 0.7.
Screening O=C(NCc1ccccn1)c1cn(Cc2ccccc2)nn1 returned H5N1 CPE inactive.
Screening C=C(C)c1ccc(C(C)(C)NC(=O)N2CCN(C)CC2)cc1 returned H5N1 CPE 0.1.
For Cn1c(CNC(=O)c2ccc(Cl)cc2)nnc1SCC(=O)Nc1sc2c(c1C#N)CCCC2 the results were H5N1 CPE inactive.
Screening CCCCS(=O)(=O)Nc1ccc(Cc2ccncc2)cc1 returned H5N1 CPE 2.5.
O=C(c1nnc(-c2ccncc2)o1)c1ccccc1Cl was read as H5N1 CPE 0.2.
`CC(=O)N1CCc2cc(S(=O)(=O)NCCCOC(C)C)ccc21` gave H5N1 CPE 1.4.

Structural class: the compounds so far containing a tert-butyl group
`CCc1ccc(/C=c2\s/c(=C\C(=O)C(C)(C)C)[nH]c2=O)cc1` gave H5N1 CPE inactive.
For CC(C)(C)C1CCc2nc(NC(=O)Cc3cn4ccsc4n3)sc2C1 (configuration not stated) the results were H5N1 CPE inactive.

More structures
`CCCCn1c(N)c(N(CCC(C)C)C(=O)CSc2nnc(C)s2)c(=O)[nH]c1=O` gave H5N1 CPE inactive.
For Cc1ccccc1C(=O)NNC(=O)Cc1ccccc1 the results were H5N1 CPE 0.3.
CN(C)c1oc(-c2ccccc2Cl)nc1C#N was read as H5N1 CPE 0.6.
Screening COc1ccc(NS(=O)(=O)c2ccc(NS(C)(=O)=O)cc2)cc1 returned H5N1 CPE 0.4.
For N#C/C(=C\c1c(N2CCOCC2)nc2ccccn2c1=O)S(=O)(=O)c1ccccc1 the results were H5N1 CPE 0.6.
`Cc1csc(SCC(=O)NC23CC4CC(CC(C4)C2)C3)n1` gave H5N1 CPE inactive.
For O=C(Nc1cccc2ncccc12)c1cc2ccccc2o1 the results were H5N1 CPE 0.5.
`COc1cc(C(=O)N(Cc2ccccn2)CC2CCCO2)cc(OC)c1OC` (configuration not stated) gave H5N1 CPE inactive.
Screening CCOC(=O)C1CCCN(S(=O)(=O)c2cccc3cccnc23)C1 (configuration not stated) returned H5N1 CPE 2.8.
For COc1cccc(C(=O)N/N=C/c2ccc(OC3CSC3)cc2)c1 the results were H5N1 CPE 1.2.
For Cc1ccc(NC(=O)CN(C)C(=O)CSc2n[nH]c(N)n2)cc1 the results were H5N1 CPE inactive.
`COc1ccc(CC(NC(C)=O)C(=O)NC2CCN(C(=O)NCc3ccccc3)CC2)cc1OC` (configuration not stated) gave H5N1 CPE inactive.
`CCOc1ccccc1C(=O)NCC(=O)OCC(=O)c1ccc2c(c1)OCCO2` gave H5N1 CPE 0.3.
COc1ccc(C(=O)COC(=O)c2ccc(NC(C)=O)cc2)cc1[N+](=O)[O-] was read as H5N1 CPE 0.8.
`Cc1nn(CC#N)c(=O)n1-c1cccc(F)c1` gave H5N1 CPE inactive.
`Cc1ccc(/C(N)=N/OC(=O)CCc2ccccc2)cc1` gave H5N1 CPE inactive.
Screening Cc1nonc1NCn1nnc2ccccc21 returned H5N1 CPE inactive.
CNC(=O)CSc1nc(N)c2c3c(sc2n1)CCC3 was read as H5N1 CPE 0.7.
Screening CCOc1ccccc1Oc1coc2cc(O)ccc2c1=O returned H5N1 CPE inactive.
O=C(CCc1ccccc1)Nc1ccc(NC(=O)C2CC2)nc1 was read as H5N1 CPE inactive.
For COc1ccc2nc(NC(=O)C3CCCN(S(=O)(=O)c4cccs4)C3)sc2c1 (configuration not stated) the results were H5N1 CPE inactive.
Screening CC(C)CNS(=O)(=O)c1ccc(CCC(=O)Nc2ccc3c(c2)OCCO3)cc1 returned H5N1 CPE 1.9.
For O=S(=O)(NC1=NCCC1)c1ccc(F)cc1 the results were H5N1 CPE 1.7.

Quoted at random: four compounds from above
Screening CC(C)CNS(=O)(=O)c1ccc(CCC(=O)Nc2ccc3c(c2)OCCO3)cc1 returned H5N1 CPE 1.9.
`COc1ccc(CC(NC(C)=O)C(=O)NC2CCN(C(=O)NCc3ccccc3)CC2)cc1OC` (configuration not stated) gave H5N1 CPE inactive.
O=C(CCc1ccccc1)Nc1ccc(NC(=O)C2CC2)nc1 was read as H5N1 CPE inactive.
Screening CCOc1ccccc1Oc1coc2cc(O)ccc2c1=O returned H5N1 CPE inactive.

This is a subset; rates above refer to the full screens.
